# Bioassay records (PubChem)
# Ecoli growth – blocks Escherichia coli growth | AID 1053175 | 330,000 tested, 0.21% active | OD600 absorbance (test concentration not listed) | OD600, 23 h; active compounds read low;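 active = OD600 absorbance below the run mean of sample wells minus 3.6 SD, in any replicate, cut at about 0.56 in these data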;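 note: stock transfer was 300 nL into about 60 µL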
# Bfl-1 A1 inh – inhibitors of the anti-apoptotic protein A1, read as caspase activation. MEF A1-2A-BIM cells, Caspase-Glo 3/7 luminescence, 3 h; percent of clofoctol response, vehicle zero. caspase activation, % (test concentration not listed). AID 2462. 330,000 tested, 0.066% active;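 active = over half of replicate activation scores above 10%, or exactly half above 10 with the replicate mean above 10; inconclusive = replicate mean below 10 yet half the replicates above 10; inactive = over half of replicates below 10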;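 note: wells of about 30 µL received 50 nL stock; many hits fall short of the cut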
# Ecoli rRNA inh – selective bacterial rRNA inhibition in E. coli. E. coli WT GFP vs humanized-ribosome RFP mutants, fluorescence, 24 h; active compounds read low; DMSO median 0, no signal -100. GFP signal change (wild-type ribosome), % (no concentration beside the values). 350,000 tested, 1.6% active;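 active = significant combined selectivity score with lowered wild-type GFP, culture density cut under 30%, mutant RFP and density less affected; inactive = any of these conditions unmet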; note: one replicate is shown; some compounds called inactive have numbers as strong as hits
# T cruzi repl – T. cruzi replication inhibition. T. cruzi beta-gal in NIH3T3, luminescence, 90 h. 300,000 tested, 1.4% active. inhibition, % (test concentration not listed);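 active = mean inhibition across valid replicates above about 55%, limit read from the data; inconclusive = mean below that limit but half or more replicates reach it; inactive = mean below it, under half of replicates reach it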;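 note: signal also drops with host cell toxicity which is not excluded here; 0% = plate median of DMSO wells and 100% = zero luminescence signal; higher percent means less beta-gal luminescence so fewer parasites; stock transfer was 50 nL into about 50 µL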
# AF4-AF9 inh – MLL-AF4/AF9 protein interaction inhibition; inhibition, % at 10 µM; 350,000 tested, 0.47% active; P42568; AlphaScreen, biotin-AF4 peptide binding to FLAG-AF9;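 active = every replicate reaching a set inhibition limit, whatever the replicate mean, cut at about 25% in these data; inconclusive = mean inhibition reaches that limit but some replicates miss it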;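 note: 0% = plate neutral control median and 100% = total signal loss; the record names both 10 and 1 µM as test concentration; the first replicate is given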
# Target sequence (P42568 whole entry, looked up): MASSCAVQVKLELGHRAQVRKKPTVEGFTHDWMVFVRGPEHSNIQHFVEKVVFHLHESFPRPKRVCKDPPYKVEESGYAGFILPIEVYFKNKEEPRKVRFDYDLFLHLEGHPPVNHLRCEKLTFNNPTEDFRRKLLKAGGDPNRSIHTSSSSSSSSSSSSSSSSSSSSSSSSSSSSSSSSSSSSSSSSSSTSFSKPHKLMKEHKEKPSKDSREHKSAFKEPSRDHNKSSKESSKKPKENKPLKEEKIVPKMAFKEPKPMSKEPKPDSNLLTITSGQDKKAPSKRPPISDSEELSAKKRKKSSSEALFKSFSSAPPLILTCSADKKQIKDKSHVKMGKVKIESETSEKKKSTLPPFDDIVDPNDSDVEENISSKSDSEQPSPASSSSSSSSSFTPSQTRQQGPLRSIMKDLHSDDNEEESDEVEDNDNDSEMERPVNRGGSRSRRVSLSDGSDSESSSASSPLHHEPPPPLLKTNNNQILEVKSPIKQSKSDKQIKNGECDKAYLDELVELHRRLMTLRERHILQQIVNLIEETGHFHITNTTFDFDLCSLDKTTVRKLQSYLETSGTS
# Beta cell apopt – beta cell apoptosis inhibition. protection from apoptosis, % (concentration not given with the values). INS-1E cytokine-induced death, ATP luminescence, 48 h; percent of positive-control rescue, neutral wells zero. 300,000 tested, 0.8% active;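 active = all replicates at 75% or more, or half of them and the mean; inconclusive = half reach 75% but not the mean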;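 note: 0% = cytokine-treated negative control wells and 100% = positive control rescue; higher means more ATP so stronger rescue from cytokine killing; wells of about 40 µL received 100 nL stock; the first replicate is given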
# FGF22 binding – binders of recombinant human FGF22 by thermal shift; Q9HCT0; SYPRO orange fluorescence; percent of sucrose octasulfate shift, DMSO zero; calls only at 9.99 µM; 340,000 tested, 1.5% active;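 active = melting point raised past a set limit in the mean and every replicate; inconclusive = no clear call; three in four hits are not shown here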
# Target sequence (Q9HCT0 whole entry, looked up): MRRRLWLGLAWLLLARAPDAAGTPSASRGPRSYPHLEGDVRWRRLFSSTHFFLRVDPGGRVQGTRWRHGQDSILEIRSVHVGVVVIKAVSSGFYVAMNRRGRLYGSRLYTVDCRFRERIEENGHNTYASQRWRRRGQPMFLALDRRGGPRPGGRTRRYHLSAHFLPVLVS
# UCH37 DUB inh – blocks the human deubiquitinase UCH37. purified proteasome/UCH37, Ub-AMC cleavage fluorescence. inhibition, % (test concentration not listed). 330,000 tested, 0.33% active. AID 588478;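 active = mean of two replicates above 20%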;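 note: 0% = compound-free wells with enzyme and 100% = wells lacking proteasome; stock transfer was 100 nL into about 20 µL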
# Target sequence (Q9Y5K5 whole entry, looked up): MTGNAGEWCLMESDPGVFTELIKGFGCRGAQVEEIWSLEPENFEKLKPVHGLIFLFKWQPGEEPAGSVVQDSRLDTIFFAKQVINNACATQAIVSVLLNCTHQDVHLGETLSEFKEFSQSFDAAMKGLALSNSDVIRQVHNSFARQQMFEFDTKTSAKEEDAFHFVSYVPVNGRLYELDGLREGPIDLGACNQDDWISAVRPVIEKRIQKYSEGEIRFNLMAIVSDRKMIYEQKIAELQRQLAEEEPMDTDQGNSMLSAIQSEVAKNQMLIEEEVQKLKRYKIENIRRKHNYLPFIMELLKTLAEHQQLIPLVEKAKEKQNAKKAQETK
#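 Material: human UCH37 enzyme supplied as purified proteasome complex. Measure: % inhibition of Ub-AMC cleavage fluorescence. Medium: pH 7.4 Tris-HCl (50 mM) with ovalbumin, ATP-MgCl2, DTT. Times: 30 min preincubation with enzyme, 25 min cleavage at room temperature. Detection: AMC fluorescence intensity at 355/460 nm.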
# Ecoli rRNA inh OD600 – also measured in Ecoli rRNA inh; calls as there; OD600 change, %; measured here: OD600 growth;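 optical density of the mix in the first replicate; 0 = DMSO median and -100 = no signal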
# Ecoli rRNA inh RFP – recorded beside Ecoli rRNA inh, whose call it bears; RFP signal change, %; measured here: RFP humanized mutant strains;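 first replicate; 0 = DMSO median and -100 = no signal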
# Active calls of the source: *; i = inactive; ? = inconclusive; . = no result given. These rows are one share of the data, so the mix of outcomes need not match the whole.
SMILES,Ecoli growth,Bfl-1 A1 inh,Ecoli rRNA inh,Ecoli rRNA inh OD600,Ecoli rRNA inh RFP,T cruzi repl,AF4-AF9 inh,Beta cell apopt,FGF22 binding,UCH37 DUB inh
COc1ccc(C(=O)/C=C/C(=O)N(CC(=O)NC2CCCCC2)CC2CCCO2)c(O)c1 (centres undefined),0.67,-2.7,-7,-8,4.4,50,1.0,49,i,-2.0
C/C(=N\S(=O)(=O)c1ccc(C)cc1)Nc1cc(C(C)C)c(O)cc1C,0.68,0.9,-11,-10,-2.0,-7,-1.0,-7,i,1.8
CSc1ccccc1C(=O)N1CCc2ccccc2C1,0.7,0.6,-5,-5,2.2,-4,0.2,-7,i,6.0
COc1ccc(CN(C)C(c2ccccc2)c2nnnn2-c2ccccc2C)c(OC)c1C (centres undefined),0.77,-1.5,.,.,.,14,.,5,.,3.1
O=C(NC1CCCCC1)c1cc(-n2cnnc2)ccc1Cl,0.7,0.4,6,16,0.1,-12,-10,2,i,3.2
Cc1cc(C)nc(SCC(=O)Nc2ccc(S(=O)(=O)NC(C)(C)C)cc2)n1,0.67,-0.3,-18,-15,-1.4,-16,1.4,28,i,4.6
COc1cc(Nc2ncnc(N)n2)cc(OC)c1OC,0.69,0.3,20,2,-1.9,-3,.,-18,i,2.0
O=S(=O)(NCc1cccnc1)c1ccc(Cl)nc1,0.61,0.3,.,.,.,-12,.,-4,.,3.5
CCN(CC(=O)Nc1ccc(NC(C)=O)cc1)C(=O)c1ccc(COc2ccc(C(C)(C)C)cc2)cc1,0.71,.,-2,-6,-2.5,.,-1.1,.,i,1.3
CC12CCC(C(=O)N(NC(=O)c3ccccc3Cl)C1=O)C2(C)C (centres undefined),0.69,-0.1,3,2,5.6,4,0.0,-6,i,0.3
O=C(Cc1ccc(NS(=O)(=O)c2ccc(Cl)c(Cl)c2)cc1)NCCN1CCOCC1,0.65,.,3,2,-2.4,.,-0.6,.,i,2.2
CCC1Oc2ccc(C)cc2N(CC(=O)NCCCN2CCN(Cc3ccccc3)CC2)C1=O (centres undefined),0.61,0.3,-1,-7,1.0,24,6.8,4,i,2.0
COc1ccccc1C1SCCN1S(=O)(=O)c1cccc(C(F)(F)F)c1 (centres undefined),0.7,1.4,-19,-8,-5.8,9,9.1,-2,i,-2.1
CC(=O)c1sc2c(c1N)c(=O)[nH]c(=O)n2-c1ccccc1,0.68,0.0,21,5,1.2,-13,-1.8,-7,i,4.2
Cc1cc(Cl)ccc1NC(=S)NCc1ccc(Cl)cc1,0.72,0.1,.,.,.,-23,.,-14,.,1.3
O=C(CC(c1ccccc1)c1ccccc1)Nc1ccc(C(=O)O)cc1,0.67,0.6,0,5,-0.6,0,1.3,-10,i,4.0
Cc1nnc(NC(=O)c2ccc(F)c(S(=O)(=O)N3CCCCC3)c2)s1,0.67,-1.0,1,1,-0.9,-47,1.0,-3,i,2.4
COC(=O)CCC(=O)NNC(=O)CCC(=O)Nc1cccc(Cl)c1C,0.69,0.5,8,6,0.8,-18,-3.8,2,.,1.0
CCc1cc2c(=O)c(-c3nc4ccccc4n3C)c(COCC(=O)O)oc2cc1OC(=O)C(C)(C)C,0.72,0.3,.,.,.,-13,.,-2,.,-1.2
CCN(C(=O)CSc1nc2scc(-c3ccccc3)c2c(=O)n1C)C1CCS(=O)(=O)C1 (centres undefined),0.66,1.2,3,11,1.2,.,0.8,4,i,1.7
Cc1cc(-c2ccccc2)n2ncc(-c3ccccc3)c2n1,0.68,-0.2,26,11,7.9,25,-4.8,7,i,6.0
Cc1cccc(Cn2c(NCC(C)O)nc3c2c(=O)n(C)c(=O)n3C)c1 (centres undefined),0.65,-1.2,.,.,.,-11,.,5,.,1.0
CCN(C(=O)c1cn(C)c(=O)c2ccccc12)c1ccccc1F,0.65,0.2,12,7,-2.1,-9,-0.1,-7,i,5.2
CC(Sc1nnnn1-c1ccccc1)C(=O)NC1CCCC1 (centres undefined),0.69,0.2,9,0,-0.9,.,0.6,-3,i,1.9
O=C(Nc1c(C(=O)N2CCCCC2)cnn1-c1ccccc1)c1ccco1,0.69,-0.1,6,8,-3.6,14,6.0,0,i,2.9
COc1cccc(C(=O)OCC(=O)c2ccc(S(=O)(=O)N3CCCCC3)cc2)c1OC,0.68,.,-4,3,4.4,.,1.1,.,i,-2.5
O=C(NCCc1ccccc1)C(=O)c1c[nH]c2ccccc12,.,-0.4,-8,-3,-1.0,2,1.6,.,i,.
Cc1ccc(N(C)S(=O)(=O)c2ccc(C)cc2)cc1,0.69,0.1,.,.,.,0,.,0,.,0.2
COc1ccc(N(CCCN2C(=O)c3cccc4cccc(c34)C2=O)C(=O)c2cccs2)cc1,0.72,-0.4,4,3,2.1,43,-2.8,4,i,1.7
CCC1Oc2ccc(C)cc2N(CC(=O)NCCCN2CCCCC2CC)C1=O (centres undefined),0.72,0.0,.,.,.,-3,.,-14,.,0.6
CC1CCC2(CC1)OCC1(CCC3(COC4(CCC(C)CC4)OC3)C1=O)CO2 (centres undefined),0.73,-0.6,5,7,0.7,-20,-1.7,.,i,1.4
COc1cc(OC)c(-n2c(C)cc(C=O)c2C)cc1Cl,0.69,?,.,.,.,-1,.,-2,.,1.8
COc1cc(C(=O)NCc2ccccc2)cc(Br)c1OC,0.73,0.1,9,-6,-2.0,0,-3.6,2,i,3.6
CCC(C)c1c(N)n(S(=O)(=O)c2ccc(C)cc2)oc1=O (centres undefined),0.7,.,1,4,1.6,.,-4.2,.,i,1.6
O=C(CSc1nnc(-c2cccs2)n1-c1ccccc1)c1ccc2c(c1)OCCO2,0.76,1.0,.,.,.,9,.,2,.,0.7
COc1ccc(OC)c(S(=O)(=O)NC2CCN(Cc3ccccc3)CC2)c1,0.66,0.4,.,.,.,-9,.,-3,.,0.2
COc1ccccc1CNC(=O)CCS(=O)(=O)c1ccc(Cl)cc1,0.65,0.5,4,5,0.2,9,-11,-9,i,1.5
c1ccc(OCc2nc(-c3cccs3)no2)cc1,0.64,-1.6,.,.,.,4,.,-9,.,0.9
COc1cccc(-n2c(SCC(=O)N3CCCCC3)nc3c([nH]c4ccccc43)c2=O)c1,0.72,0.8,9,16,1.9,7,6.5,.,i,1.1
CCOc1ccc(C(=O)NCC(=O)NNC(=O)c2ccco2)cc1OCC,0.69,-0.1,10,23,-2.1,.,-2.9,-8,i,2.2

# Results in FGF22 binding and Ecoli rRNA inh, for two of the compounds above:
SMILES | FGF22 binding | Ecoli rRNA inh
COc1cccc(-n2c(SCC(=O)N3CCCCC3)nc3c([nH]c4ccccc43)c2=O)c1 | i | 9
CCOc1ccc(C(=O)NCC(=O)NNC(=O)c2ccco2)cc1OCC | i | 10

# More records:
SMILES,Ecoli growth,Bfl-1 A1 inh,Ecoli rRNA inh,Ecoli rRNA inh OD600,Ecoli rRNA inh RFP,T cruzi repl,AF4-AF9 inh,Beta cell apopt,FGF22 binding,UCH37 DUB inh
O=C(Nc1cccc(S(=O)(=O)N2CCOCC2)c1)C1COc2ccccc2O1 (centres undefined),0.71,.,-6,-8,-2.5,.,1.0,.,i,-0.2
Cc1c(NC(=O)C(C#N)=C2CCCCC2)c(=O)n(-c2ccccc2)n1C,0.8,2.1,.,.,.,-3,.,.,.,1.3
Cc1ccc(C)c(-c2cc(C(=O)NNC(=S)NCC(C)C)c3ccccc3n2)c1,0.63,1.3,7,9,1.6,-26,9.5,28,i,0.7
Cc1ccc(S(=O)(=O)n2cc(-c3ccccc3)c(N)n2)cc1,0.74,-0.9,.,.,.,-12,.,-6,.,5.7
NC(=O)NC1(C(=O)O)CCCC1,0.71,.,3,8,-0.5,.,-2.2,.,i,3.2
O=C(NNC(=O)C1[C@H]2CCCC[C@@H]12)c1ccc(=O)oc1 (some centres undefined),0.72,0.6,17,9,8.3,-7,-0.8,-1,i,-119
CCN1CCN(C(=S)Nc2ccc(Cl)cc2Cl)CC1,0.7,0.3,.,.,.,4,.,-4,.,2.3
O=C(CSc1nnc(-c2ccco2)n1-c1ccccc1Cl)Nc1cccc(C(=O)O)c1,0.69,0.4,-2,5,-2.8,-8,-6.8,-2,i,4.0
CCOc1ccccc1NC(=O)c1nc(S(=O)(=O)Cc2cccc(C)c2)ncc1Cl,.,3.5,2,4,-0.3,28,0.9,96*,i,.
O=C(COc1ccccc1)Nc1nc2c(s1)CCCC2,0.64,0.5,-11,-18,-3.1,7,2.9,.,i,2.5
O=C(CCNC(=O)c1ccc(Br)o1)NCc1ccc(Cl)cc1,0.73,0.5,0,1,0.4,7,.,0,.,3.9
O=C(COc1ccc(Br)cc1)N1CCC(c2ccccc2)C1 (centres undefined),0.73,0.1,.,.,.,-2,.,-3,.,2.2
CCN(CC)CCn1c(NCc2cccc(OC)c2)nc2ccccc21,0.7,0.2,.,.,.,15,.,-3,.,1.0
COc1ccc(NS(=O)(=O)c2ccc(N3CCOCC3)c(NC(=O)c3ccc(OC)cc3)c2)cc1,0.73,0.1,.,.,.,-6,.,3,.,-0.6
CC12CCC(=O)N1C(C(=O)Nc1ccc(F)cc1)CS2 (centres undefined),0.72,0.1,4,5,5.2,-8,-2.6,-13,i,1.1
CC(C)[N+]1=C2C=CC=CC=C2SC12C([N+](=O)[O-])=CC(=[N+]([O-])[O-])C=C2[N+](=O)[O-] (centres undefined),0.66,0.0,8,-1,1.8,4,29*,-3,i,3.4
O=C(NN=C1CCCC1)c1cc(O)cc(O)c1,0.69,0.7,20,10,-1.3,11,-2.9,-1,i,0.7
Cc1c(C)n(C)c2ccc(C(=O)N3CCN(c4ccccn4)CC3)cc12,0.67,0.0,1,-33,20,0,4.3,-2,i,2.5
CCN1CSC(=S)N(Cc2ccc(OC)cc2)C1,0.5*,-0.8,-14,-1,3.8,20,0.6,-6,.,1.4
CCC1=C(OC(=O)N(CC)CC)N2C(=O)OC(=NCc3ccccc3)[C@]2(C)[C@H]2C1=CC[C@H]1C(=O)N(CC(=O)OC)C(=O)[C@H]12,.,0.7,0,-5,-0.7,-10,.,-3,i,4.8
COC(=O)c1c(C(=O)OC)c2n(c1C)Cc1ccccc1C2,0.7,0.9,.,.,.,14,.,0,.,3.1
C/C(=N/NC(=O)CNC(=O)c1ccncc1)c1ccco1,.,-0.4,5,9,-0.3,-15,0.0,-5,i,.
CCOC(=O)c1sc2ccccc2c1NC(=O)c1coc2ccccc2c1=O,0.72,-0.9,.,.,.,-1,.,-1,.,0.7
Cc1ccc(C(C(=O)NC2CCCC2)N(C(=O)c2csnn2)C2CCCC2)o1 (centres undefined),0.69,0.2,9,3,0.8,-10,.,-3,.,4.6
COc1ccc(/C=C(/NC(=O)c2ccccc2)C(=O)N2CCCCC2)cc1OC,0.7,2.0,5,7,-1.7,7,2.0,0,i,5.9
O=C(CNC(=O)c1ccccc1F)N/N=C/c1ccco1,.,-0.6,4,6,0.1,-8,2.8,-3,i,.
O=C(CC(C(=O)O)c1cccc(Cl)c1Cl)c1ccccc1 (centres undefined),0.69,0.0,3,-4,-3.4,-4,-0.6,-5,i,5.4
